Ba CapD inh = CapD enzyme inhibition; actives 0.23% (n = 140,000); z-score (test concentration not listed); purified CapD enzyme, fluorescence intensity read-out; hits give low values; some hits fall short of the stated cut;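 active = z-score under -4 in either of two replicates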;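 also: stock transfer was 100 nL into about 40 µL; score is relative to mean and spread of the plate; one replicate is shown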
AID504770 = E. coli YBA685 growth inhibition, screen for V. cholerae RctB inhibitors; E. coli YBA685 rctB-dependent plasmid, OD600 growth, 3 h; hits give low values; z-score (concentration not given with the values); actives 0.27% (n = 130,000);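 active = z-score under -2 on both plates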;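 also: wells of about 30 µL received 100 nL stock; score is relative to mean and SD of the test wells; the first replicate is given; strong numbers were not always called active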
* = called active by the depositor; . = not tested or not shown.

SMILES	Ba CapD inh	AID504770
COc1ccc(OCC(=O)NCc2ccncc2)cc1	0.165	2
O=c1[nH]c2cc3[nH]c(=O)c(=O)c3cc2c1=O	.	-0.2
COc1ccc(/C=N/NC(=O)Cn2ccnc2C)cc1	.	0
Cc1cc2c(cc1C)N(C(=O)Nc1ccccc1)C(C)(C)CC2C (stereo not drawn)	0.445	.
C=CCOc1ccc2c(c1)C(=NO)c1cc(OCC=C)ccc1-2	0.64	.
N#Cc1cnn(-c2nc3ccccc3s2)c1N	0.435	2.05
O=C(CN1C(=O)c2ccccc2S1(=O)=O)NCc1ccccc1Cl	-0.75	-0.7
c1ccc2c(N3CCC4(CC3)OCCO4)nnc(Cc3ccncc3)c2c1	-0.88	2.2
COc1ccc(C2C(C(=O)Nc3ccc(Br)cn3)=C(C)NC3=C2C(=O)CC(C)(C)C3)c(OC)c1 (stereo not drawn)	18.2	.
O=C(NC(Sc1ccncn1)C(=O)c1ccccc1)c1ccccc1 (stereo not drawn)	-3.21	-0.35
CCOC(=O)Cn1c(=O)oc2cc(S(=O)(=O)N3CCC(C)CC3)ccc21	0.045	0.1
N#Cc1ccccc1NC(=O)COC(=O)c1ccccc1C(=O)N1CCCC1	.	-0.05

Compounds listed so far that contain nitrogen in an aromatic ring, in the order listed:
SMILES	Ba CapD inh	AID504770
COc1ccc(OCC(=O)NCc2ccncc2)cc1	0.165	2
O=c1[nH]c2cc3[nH]c(=O)c(=O)c3cc2c1=O	.	-0.2
COc1ccc(/C=N/NC(=O)Cn2ccnc2C)cc1	.	0
N#Cc1cnn(-c2nc3ccccc3s2)c1N	0.435	2.05
c1ccc2c(N3CCC4(CC3)OCCO4)nnc(Cc3ccncc3)c2c1	-0.88	2.2
COc1ccc(C2C(C(=O)Nc3ccc(Br)cn3)=C(C)NC3=C2C(=O)CC(C)(C)C3)c(OC)c1 (stereo not drawn)	18.2	.
O=C(NC(Sc1ccncn1)C(=O)c1ccccc1)c1ccccc1 (stereo not drawn)	-3.21	-0.35
CCOC(=O)Cn1c(=O)oc2cc(S(=O)(=O)N3CCC(C)CC3)ccc21	0.045	0.1

More records follow:
SMILES	Ba CapD inh	AID504770
Brc1cccc(-c2nc3ccccc3[nH]2)c1	6.5	-1.4
COc1ccc(OC)c(NC(=O)CSc2nc3nc(C)cc(C)n3n2)c1	-0.34	.
CCOc1ccc(-c2csc(Cn3c(CN4CCN(C)CC4)nc4ccccc4c3=O)n2)cc1	.	0.1
COC(=O)c1ccc2c(=O)n(NC(=O)C3CC3)c(=S)[nH]c2c1	0.515	0.05
COCCNC(=O)CN1CCC(NC(=O)c2ccco2)CC1	.	-0.3
N#Cc1ccc(N2CCOCC2)cc1	-0.29	-1.6
Cc1ccc(SCC(=O)c2cc(C)c(O)c(C)c2)cc1	-1.31	1.35
O=C(O)CC1N=C(Nc2nc3ccccc3o2)NC1=O (stereo not drawn)	0.645	0.4
CC1Cc2ccccc2O1 (stereo not drawn)	.	-0.1
O=c1[nH]c2nc3ccccc3n2c(O)c1Cc1ccccc1	0.955	-0.8
O=C(NCCCN1CCCC1=O)c1cc(-c2ccc(F)cc2)nc2ccccc12	31.7	1.4
O=C(NCc1cccs1)c1cc(C(=O)c2c(Cl)cccc2Cl)c[nH]1	0.46	.
O=C(Cc1nc2ccccc2[nH]1)N1CCOCC1	-0.03	-0.3
Cc1c(Cc2c(Cl)cccc2Cl)c(=O)ccn1CCc1ccccc1	-0.285	.
COc1ccc(-c2nsc(SCC(=O)N3CCCCC3)n2)cc1	.	-0.6
COC(=O)c1ccc(OCC(F)(F)F)nc1	0.045	.
CCc1cccc(CC)c1N(COC)C(=O)Cn1c(Cc2ccccc2)nc2ccccc21	-0.79	-0.95
Cn1cccc1C1=NC(C)(C)CO1	0.17	-0.65
CCOC(=O)c1c(C)c(C#N)c(N(C(C)=O)C(C)=O)n1-c1ccc(C)cc1	-0.415	0.3
CC/S(=N\S(=O)(=O)c1ccc(C)cc1)c1ccccc1 (stereo not drawn)	-0.215	1.55
Cc1cc(-c2ccccc2)nc(N(C)NC(=O)C(C)(C)C)c1S(C)(=O)=O	-0.03	.
CC(c1ccccc1)n1c(SCC(=O)Nc2ccccc2)n[nH]c1=O (stereo not drawn)	0.73	-0.25
COCCNC(=O)c1cc2ccccc2oc1=O	.	-0.75
COC(=O)CSC1=C(C#N)C(c2ccco2)C(C(=O)Nc2ccccc2)=C(C)N1 (stereo not drawn)	.	1.8
Nc1nonc1-n1nnc(C(=O)N/N=C/c2cc(Br)cs2)c1-c1ccccc1	0.495	.
FC(F)(F)CNC1CCN(Cc2ccccc2)CC1	.	-0.05
O=C1OCCC1OC(=O)C1c2ccccc2Oc2ccccc21 (stereo not drawn)	.	0.85
CC12CCC(=O)N1C(C(=O)NC1CCCc3ccccc31)CS2 (stereo not drawn)	.	0.3
O=C(CCCCCn1c(=S)[nH]c2ccc(Br)cc2c1=O)N1CCN(C(=O)c2ccco2)CC1	-0.92	.
N#CC(C(=O)Nc1ccccc1)=C1CCCC1	0.055	-0.75
O=C(NCc1cccc(C(F)(F)F)c1)c1cccs1	-0.3	1.8
N/C(=N/OC(=O)Nc1ccccc1)C1COc2ccccc2O1 (stereo not drawn)	-0.195	0.1
CCOCCn1cnc2sc(C(=O)NC3CCCC(C)C3C)c(C)c2c1=O (stereo not drawn)	5.88	.
Cc1ccc(S(=O)(=O)Nn2c(SCC(=O)Nc3nccs3)nc3ccccc3c2=O)cc1	-0.635	.
CCc1ccccc1NC(=O)Cn1cccc1C1=NC(c2ccccc2)CO1 (stereo not drawn)	-0.47	1.85
Clc1ccc(-c2noc(CSc3ccccn3)n2)cc1	0.94	-0.4
NNc1nnc2c(n1)[nH]c1ccc(F)cc12	0.185	-0.45
OCCSc1ccc(Cl)cn1	-0.08	.
CCOc1ccc(OCCn2c(SCC(=O)O)nc3c(N)ncnc32)cc1	-0.18	-0.35
CSc1nnc(-c2cccs2)o1	8.88	-0.7
CC(C)c1cc(C(F)(F)F)n2nc(C(=O)O)cc2n1	.	-2.5
CC(Sc1sc(=S)sc1SC(C)C(=O)O)C(=O)O (stereo not drawn)	-1.25	.
CN(CC(=O)NC1CCCCCC1)S(=O)(=O)c1ccc2c(c1)n(C)c(=O)c(=O)n2C	12	0.2
COc1ccc(C2(C(=O)NC(C)(C)C)CCCC2)cc1	0.375	1.95
O=C(Cn1c(C(F)(F)F)nc2ccccc21)Nc1cccc(C(F)(F)F)c1	0.04	.
COc1cc2c(cc1NC(=O)CC(C)(C)C)oc1ccccc12	2.02	-1.3
COc1ccc(CNC(=O)CCSCc2ccc(C)cc2)cc1	0.13	-0.55
Cc1ccc(S(=O)(=O)NC(=O)OCc2cn(-c3ccccc3)nn2)cc1	-0.165	.
CC1(C)OC2OC(CO)C3OC(C)(C)OC3C2O1 (stereo not drawn)	0.19	.
COc1ccc(-n2nc3ccc(NC(=O)c4ccc5c(c4)OCCO5)cc3n2)cc1	68.1	.
COc1ccc(C(=O)NCc2nnc(SCC(=O)Nc3ccc(C)cc3C)o2)cc1OC	-0.205	-0.6
Cc1ccc(S(=O)(=O)NC(=O)Nc2cc(C)on2)cc1	-0.235	.
CN(C)C(=O)Oc1ccnc(SCc2c(F)cccc2Cl)n1	0.895	-0.1
COCCNS(=O)(=O)c1cccc(C(=O)Nc2ccccc2)c1	0.675	0.45
COc1ccc(NC(=O)CSc2nc3ccc(Nc4nc(N5CCOCC5)nc(N5CCOCC5)n4)cc3s2)cc1	0.16	.
Cc1noc(C)c1C(=O)N1CCSCC1	0.485	-0.75
Cc1ccc(NC(=S)N2CCCc3ccccc32)c(C)c1	-0.635	.
O=c1ccc2cc3c([nH]c4ccc(Br)cc43)oc-2c1O	-7.81*	0.5
c1ccc2oc(Cc3nc4ccccc4s3)nc2c1	.	-0.6
Cc1[nH]nc2oc(=O)c(Cc3c(F)cccc3Cl)c(C)c12	0.325	0.35

Rewritten with each value named: four of the compounds above
Cc1ccc(NC(=S)N2CCCc3ccccc32)c(C)c1
  Ba CapD inh: -0.635 | AID504770: .

COc1ccc(C(=O)NCc2nnc(SCC(=O)Nc3ccc(C)cc3C)o2)cc1OC
  Ba CapD inh: -0.205 | AID504770: -0.6

COCCNS(=O)(=O)c1cccc(C(=O)Nc2ccccc2)c1
  Ba CapD inh: 0.675 | AID504770: 0.45

COc1ccc(NC(=O)CSc2nc3ccc(Nc4nc(N5CCOCC5)nc(N5CCOCC5)n4)cc3s2)cc1
  Ba CapD inh: 0.16 | AID504770: .

(next part)
SMILES	Ba CapD inh	AID504770
O=c1c2ccccc2c(/C=N/c2ncn[nH]2)c(O)n1-c1cccc(C(F)(F)F)c1	.	-0.45
CC(C)(C)NC(=O)Cc1ccc(Br)cc1	-0.2	-0.35
Cc1cccc(C)c1OCC(O)CN1CCN(c2ccccc2)CC1 (stereo not drawn)	-0.97	0.15
N#Cc1ccc(-c2ccc(Cl)cc2)nc1Cl	0.165	-0.9
O=C(Cn1c(=O)oc2ccccc21)Oc1ccc2c(c1)OCO2	.	0.05
Cn1c(=O)c2cc(NC(=O)c3ccccc3F)c(=O)oc2n(C)c1=O	.	1
FC(F)n1c(=S)n(C(F)F)c2ccccc21	.	-1.1
COc1ccc(N/C(=N/c2nc(C)cc(=O)[nH]2)NC(=O)c2cccc(Cl)c2)cc1	0.045	1.3
Cc1ccc2nc(SCC(=O)N3CCCc4ccccc43)nc(=O)n2c1	.	0.1
O=S(=O)(NCCNc1ccccc1)c1ccccc1Br	0.39	.
Cc1ccc(-n2nc3c(c2NC(=O)c2c(-c4ccccc4Cl)noc2C)CS(=O)(=O)C3)cc1	-0.01	.
CCc1ccc(Nc2ncnc3c2cnn3-c2ccc(OC)cc2)cc1	0.245	.
O=C(CSc1nnc(-c2ccccc2)o1)c1ccccc1	0.155	0.55
COc1ccc(C(=O)Nc2ccccc2)cc1	.	-0.85
CCOc1ccc2oc(C(=O)N3CCCCC3C(N)=O)c(C)c2c1 (stereo not drawn)	.	0.3
Clc1ccc(C2C3CC=CC3c3cc(Br)cc4c3N2CC2CC=CC42)cc1 (stereo not drawn)	-0.11	.
Cc1[nH]c2ccccc2c1CCNC(=O)NC(=O)c1ccc(C(F)(F)F)cc1	0.29	0.5
CCCCOn1c(C)c(C(=O)OCC)c2c3no[n+]([O-])c3ccc21	-0.2	-0.3
Cc1cc(C)c2c(N)c(C(=O)N3CCC(Cc4ccccc4)CC3)sc2n1	16.5	0.6
COc1ccc(Nc2c(C(=O)N3CC(=O)Nc4ccccc43)cc([N+](=O)[O-])c(Nc3ccc(OC)cc3)c2[N+](=O)[O-])cc1	-1.3	.
NC(=NC(=O)c1ccc(OCC(F)(F)F)nc1)c1ccc(Cl)cc1	-0.185	-0.05
CCOC(=O)CSc1nc2cc(Cl)ccc2n1C(C)C	-0.075	0.7
S=c1[nH]c(=S)c2cnc(N3CCN(c4ccccc4)CC3)nc2[nH]1	-0.84	-0.45
COc1cc(Cl)c(COC(=O)NCCn2c([N+](=O)[O-])cnc2C)cc1OC	-1.21	.
O=C(CSCc1ccccc1)NC1Cc2ccccc2C1	-0.455	.
CSc1nc2nc3c(cc2c(=O)[nH]1)C(O)Oc1ccc(C)cc1-3 (stereo not drawn)	.	0.2
COc1cccc2cc(C(=O)N3CCN(c4ccccc4)CC3)c(=O)oc12	3.57	0.1
COc1ccc(CN(C)C(C)C(=O)Nc2ccc3c(c2)OCCO3)c(OC)c1 (stereo not drawn)	.	0.3
Cc1oc(-c2cccc(Cl)c2)nc1CN1CCC(C(=O)NCCC2=CCCCC2)CC1	-0.295	-0.5
CCOc1ccc(OCc2ccc(C(=O)NC(C)C)o2)cc1	0.545	-1.65
CC(NS(=O)(=O)c1cc(Br)ccc1Br)C(C)(C)C (stereo not drawn)	0.365	.
O=C(Nc1ccccc1C(=O)N1CCC(c2nc(-c3ccncc3)no2)CC1)c1ccccc1	-0.4	.
O=C(NC1CCN2CCCc3cccc1c32)c1cccs1 (stereo not drawn)	0.965	.
Cc1nnc(SCCn2c(C)csc2=O)n1C	.	0.4
O=[N+]([O-])c1c(Nc2ccc(Br)cc2)cc(N2CCCCCC2)c2nonc12	0.28	.
CCOC(=O)N1CCN(CC(=O)c2ccc3c(c2)CCN3)CC1	1.94	-0.4
C[C@H](NS(=O)(=O)c1cccc2nsnc12)C(=O)Nc1ccc2c(c1)CCC2	.	-0.55
Cc1[nH]n(-c2ccccc2)c(=O)c1C(=O)c1cccc(Br)c1	-0.885	.
O=C(NNC(=O)c1ccccc1NC(=O)c1c(F)cccc1F)OCc1c(F)cccc1Cl	0.4	.
CCOC(=O)c1c(C)oc2ccc(N(C(C)=O)S(=O)(=O)c3ccc4ccccc4c3)cc12	-0.905	.
CC1=C(C(=O)Nc2nc3ccc(Br)cc3s2)C(c2ccc3c(c2)OCO3)C2=C(CC(C)(C)CC2=O)N1 (stereo not drawn)	46.6	.
CCOC(=O)c1c(C)c(C(=O)Nc2ccc(C)cc2)c(C)n1C	-0.91	2.6
Cc1ccc(CNC(=O)C2CCN(S(=O)(=O)c3c(C)nn(C)c3C)CC2)cc1	0.75	0.15
COc1ccc(C2OC(=O)CC2C(=O)NCc2ccc(Cl)cc2)cc1OC (stereo not drawn)	0.37	-0.9
COc1cc(/C=C(\C#N)c2ccc([N+](=O)[O-])cc2)cc(OC)c1OC	-0.055	.
N#Cc1c(C(F)(F)F)cc(-c2ccco2)nc1SCCN1CCOCC1	8.2	.
COc1ccc(C2CCCN2C(=O)Nc2ccc(C)c(C)c2)cc1OC (stereo not drawn)	0.2	0.6
O=C(NNC1=NCCC1)c1c[nH]c2ccccc12	.	-1.35
COc1ccccc1C1C2=C(CC(C)(C)CC2=O)Nc2nc3ccccc3n21 (stereo not drawn)	34.3	-0.35
O=S(=O)(c1ccc(Cl)cc1)N1CCCN(c2ncccc2C(F)(F)F)CC1	-0.31	-1.35
COC(=O)c1ccc(CSc2nnc(-c3ccncc3)n2Cc2ccccc2)o1	0.385	0.05
COc1cccc(CN2C(=O)c3ccccc3C2C(=O)NCC2CCCO2)c1 (stereo not drawn)	-0.03	-0.25
COC(=O)/C=C1\SC(C)C(=O)N1CC(=O)Nc1ccccc1C(F)(F)F (stereo not drawn)	.	-0.1

From PubChem
